PINK1 modulator: PINK1 expression modulation; Potency, µM (series often up to 76.6 µM), for inactives: top-dose activation (PINK1 increase), most hits filed as activators; PINK1 immunofluorescence, high-content cytometry, 24 h; hit rate 0.2% among 410,000; active = well fitted activation curve with a large enough effect; inconclusive = small, poorly fitted or top-dose-only effect; inactive = flat fitted curve, though single readings scatter; cell line not stated here;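 further: potency means the concentration at half of the fitted maximal effect; % of control where 0% means no effect; nearly all actives have a fitted effect of over 65% in size; a mitochondrial uncoupler was the plate control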
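Cells are seeded, rested 12 hours, then given compound at five concentrations or DMSO for 24 hours. After fixation, blocking and antibody staining, PINK1 amount and mitochondrial localization are scored; CCCP serves as control.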
TRPML1 agonist: agonists of human TRPML1 channel; Q9GZU1; TRPML1-expressing cells, Ca2+ dye fluorescence, FDSS; host cell line not named in the record; reference of the full effect not given here; activation, % (no concentration beside the values); hit rate 0.12% among 410,000; AID 624414; in the data active = activation above about 50%; inconclusive = about 30% to 50%; inactive = below about 30%; further: 0% is about no effect; the text of the record puts the active cut at 80%
Target sequence (Q9GZU1 whole entry, looked up): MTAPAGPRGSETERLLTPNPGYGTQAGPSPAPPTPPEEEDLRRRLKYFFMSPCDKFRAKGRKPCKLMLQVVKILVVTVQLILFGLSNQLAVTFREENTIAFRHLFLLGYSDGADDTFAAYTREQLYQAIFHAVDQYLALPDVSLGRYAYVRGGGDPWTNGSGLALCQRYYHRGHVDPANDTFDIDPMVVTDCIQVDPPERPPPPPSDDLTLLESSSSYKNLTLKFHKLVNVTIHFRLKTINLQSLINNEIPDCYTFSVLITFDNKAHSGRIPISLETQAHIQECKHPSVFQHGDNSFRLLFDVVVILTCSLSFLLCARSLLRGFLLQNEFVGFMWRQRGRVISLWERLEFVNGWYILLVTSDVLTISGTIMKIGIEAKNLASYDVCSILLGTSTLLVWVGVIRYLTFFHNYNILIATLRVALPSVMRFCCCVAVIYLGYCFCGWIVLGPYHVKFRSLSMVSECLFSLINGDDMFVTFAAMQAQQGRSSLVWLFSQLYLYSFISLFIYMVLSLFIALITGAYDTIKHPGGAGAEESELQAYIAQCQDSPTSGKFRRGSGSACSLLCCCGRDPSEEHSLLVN
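Tet-induced TRPML1-DL cells, 1,500 per well, cultured overnight, were loaded with a no-wash Ca2+ dye for 45–90 min. Calcium fluorescence was recorded on the FDSS for 110 s after compound addition, before the EC80 agonist (4 uM 54-4) was added.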
Sfp PPTase inh: Sfp phosphopantetheinyl transferase inhibition; AID 1490; Potency, µM, without a hit: max response, negative = inhibition, actives largely listed as inhibitors; hit rate 3.5% among 310,000; Q9F4F7; Biochemical Sfp PPTase activity, qHTS; active means well fitted inhibition curve with a large enough effect; inconclusive means small, poorly fitted or top-dose-only effect, or another doubt; inactive means no such curve, though single readings can be large or run the other way;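 further: the enzyme is Sfp with the accession as filed and its product quenches rhodamine fluorescence; potency means the concentration at half of the fitted maximal effect; 0% = enzyme reaction without inhibitor and -100% = no enzyme wells; top concentration of the series not given in the record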
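Fluorescence-quenching assay: 15 nM Sfp-PPTase preincubated 15 min at room temperature with compound, then 5 uM rhodamine-CoA and 12.5 uM BHQ-2-labelled YbbR peptide added. Fluorescence (ex 525/em 598 nm) read at start and after 30 min; difference gives rate.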
TRPV1 PAM: human TRPV1 potentiation; potentiation, % at 8.33 µM; TRPV1-expressing cells, Fluo-8 calcium influx, capsaicin EC20 potentiation; host cell line not named in the record; control for the full effect not named in the record; hit rate 0.02% among 320,000; Q8NER1; active means potentiation above 80%; inconclusive means 30% to 80%; inactive means below 30%; further: 0% is about no effect
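Fluo-8 calcium influx in TRPV1-expressing cells, kinetic read (ex 480/em 520 nm). Compound added and read 3 min for agonist activity, followed by capsaicin at EC20 final and 2 min further read for enhancement.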
Menin MLL FP FL: inhibitors of human menin-MLL interaction, wild-type MLL peptide; 290,000 tested, under 10 active; Fluorescence polarization, fluorescein-MLL peptide displacement from menin; AID 1766; FP activity change, % at 61.4 µM; inconclusive = falling polarisation curve, or a change in total fluorescence; inactive = total fluorescence flat and polarisation flat or rising; no compound was filed as active; the % refers to the polarisation; negative = inhibition;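 further: % of control where 0% means no effect; inhibitors lower the polarisation; unlabelled MLL peptide was the positive control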
ClpP mod: qHTS Assay for Activators of ClpP; hit rate 1.9% among 340,000; ATP-dependent Clp protease proteolytic subunit (Bacillus subtilis (strain 168)), P80244; purified B. subtilis ClpP, FRET peptide cleavage, 20 min; Potency, µM (doses to about 57.5 µM), inactives show at the top dose activity change, negative = active; active = well fitted falling curve with a large enough effect; inconclusive = small, poorly fitted or top-dose-only effect; inactive = no such curve, though single readings can be large or run the other way; further: potency means the concentration at half of the fitted maximal effect; the source files actives as falling curves though it sought activators and does not explain the sign; nearly all actives have a fitted effect of over 65% in size; many hits overshoot -100%
Target sequence (P80244 whole entry, looked up): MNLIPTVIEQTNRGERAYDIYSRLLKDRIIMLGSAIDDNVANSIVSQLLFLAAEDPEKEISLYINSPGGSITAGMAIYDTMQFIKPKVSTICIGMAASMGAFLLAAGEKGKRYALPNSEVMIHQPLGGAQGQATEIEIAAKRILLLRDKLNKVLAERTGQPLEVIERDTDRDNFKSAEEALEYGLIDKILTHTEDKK
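Buffer: 100 mM Tris/HCl pH8, 100 mM KCl, 0.05% low protease BSA, 2.5% glycerol, 0.01% Tween-20. ClpP 10 microg/mL final; 20 min RT; delta FRET normalized to ADEP and DMSO controls.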
TRPML1 inh: human mucolipin-1 channel inhibition; Q9GZU1; TRPML1-inducible cells, Ca2+ dye fluorescence, FDSS; active compounds read low; inhibition of EC80 agonist-evoked calcium signal; activity change, negative = inhibition, % (no concentration beside the values); hit rate 0.02% among 390,000; AID 624415; in the data active means activity change below about -50%; inconclusive means about -30% to -50%; inactive means above about -30%;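 further: stimulus is agonist 54-4 at its EC80 concentration; on the % scale 0 is the no-effect control and ±100 the full control effect; compound concentration not given in the record; the text of the record puts the active cut at -80%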
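Calcium fluorescence in TRPML1-DL cells induced overnight with Tet: a 110 s read after compound pin addition, then a 110 s antagonist read after challenge with 54-4 at 4 uM final (EC80).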
An asterisk follows results filed as active; u = inconclusive; x = not tested or not shown; & = joins results of further samples; [ ] = remark or other dose.

SMILES	PINK1 modulator	TRPML1 agonist	Sfp PPTase inh	TRPV1 PAM	Menin MLL FP FL	ClpP mod	TRPML1 inh
COc1cccc(OC)c1C(=O)NNC(=O)c1cccc(COc2ccc3c(c2)CCC3)c1	-1.0%	0.3	3.6%	-9.6	-2.3	0.1%	-6.9
Cc1ccc(C(=O)NCCC(=O)N2CCOCC2)cc1	-0.9%	-0.5	0.2%	-2.0	x	0.3%	18.9
COC(=O)c1ccc(NC(=O)c2c(C(=O)Nc3ccccc3)sc3nc(C)cc(=O)n23)cc1	-0.4%	-0.3	-7.5%	-2.2	3.6	-0.4%	12.8
CCCCN(C(=O)NC(=O)Nc1ccccc1OCC)S(C)(=O)=O	4.0%	0.3	16.6%	-5.5	0.1	-1.1%	-4.6
NNC(=O)c1[nH]c2ccc(Br)cc2c1-c1ccccc1	2.4%	1.1	-11.2%	3.9	-0.4	-2.4%	7.1
Cc1ccc(NC(=O)C2CCCN2S(=O)(=O)c2ccc(F)cc2)c(C)c1 (configuration not stated)	1.8%	-0.9	19.5%	-4.1	0.9	-1.8%	0.8
O=S(=O)(c1cccs1)N1CCCCC1	1.2%	-1.0	x	x	x	-0.9%	-6.7
CCOc1ccc(-c2nc(Cn3c(=O)cc(C)c4c(C)nn(-c5ccccc5)c43)c(C)o2)cc1	0.1%	1.0	x	x	x	-3.8%	17.4
CC1=C(C)CC(C(=O)Nc2ccc(C(N)=O)cc2)C(C(=O)O)C1 (configuration not stated)	0.4%	0.6	10.2%	7.5	1.0	-0.1%	6.0
CN1CCN(S(=O)(=O)c2ccc(Br)s2)CC1	-4.2%	-0.5	11.7%	0.6	2.3	-1.8%	-9.6
O=C1CS(=O)(=O)N(Cc2ccccc2F)c2ccc(Br)cc21	-0.1%	-0.8	x	x	x	1.2%	6.7
CC(Nc1nc(-c2ccc3c(c2)NC(=O)CO3)cs1)c1ccccc1 (configuration not stated)	8.5%	4.0	-11.6%	u	-8.1	x	-9.5
N#C/C(=N\Nc1ccc(F)cc1)C(=N)N1CCCCC1	0.4%[38.3 µM]	-0.5	10.0%	-28.0	1.8	1.1%	-15.7
Cn1nc(-c2ccccc2F)c2cc(C(=O)Nc3cc(F)ccc3F)sc21	12.8%	-0.4	x	x	x	3.3%	-12.2
C=CCn1c(SCC(=O)Nc2cccnc2Cl)nnc1-c1ccc(C(C)(C)C)cc1	-0.4%	2.6	-1.4%	-17.1	1.8	1.9%	-25.6
O=C1CC(c2ccco2)CC(O)=C1C=NCCN1CCN(C2CC(=O)N(c3ccccc3)C2=O)CC1 (configuration not stated)	3.0%	-0.9	21.0%	9.0	-0.5	-4.6%	-3.9
CCOC(=O)c1c(C)c(C(=O)NCC2CCCO2)c(C)n1CC (configuration not stated)	0.7%[38.3 µM]	1.1	-3.1%	-3.0	3.0	1.6%	-11.6
O=C(c1ccccc1Cl)N1CCC(N2CCC(C(=O)N3CCCC3)CC2)CC1	0.4%	0.1	-13.4%	-7.8	0.7	-3.0%	60.2
O=C(Nc1cccc2c1CCCC2)C1CCN(C(=O)NC2CCCCC2)CC1	4.2%[38.3 µM]	-0.4	20.3%	14.8	1.0	0.0%	2.1
CC(=O)[C@@]12O[C@@H]1C[C@H]1[C@@H]3CC[C@H]4C[C@@H](O)CC[C@]4(C)[C@H]3CC[C@@]12C	-0.6%	2.2	-3.6%	0.3	-8.4	-2.1%	0.4

3 entries already listed, ordered by the value under Menin MLL FP FL, falling:
SMILES,Menin MLL FP FL
CN1CCN(S(=O)(=O)c2ccc(Br)s2)CC1,2.3
C=CCn1c(SCC(=O)Nc2cccnc2Cl)nnc1-c1ccc(C(C)(C)C)cc1,1.8
CC(=O)[C@@]12O[C@@H]1C[C@H]1[C@@H]3CC[C@H]4C[C@@H](O)CC[C@]4(C)[C@H]3CC[C@@]12C,-8.4

Further structures follow:
SMILES	PINK1 modulator	TRPML1 agonist	Sfp PPTase inh	TRPV1 PAM	Menin MLL FP FL	ClpP mod	TRPML1 inh
c1csc(-c2nc3ccccn3c2NC2CCCCC2)c1	1.6%	8.2	-0.6%	-9.4	5.4	x	-13.1
O=C(NCc1ccco1)C1(c2ccc(Cl)cc2)CCCC1	5.2%[38.3 µM]	0.3	4.2%	2.7	0.1	0.0%	-8.2
Cn1c(=O)c2c(nc(SCC(=O)O)n2Cc2cc3c(cc2Cl)OCO3)n(C)c1=O	-0.7%	1.3	56.2µM*	3.8	1.3	-6.2%	2.7
CCn1c2c(c(=O)n3ncc(C(=O)Nc4ccc(F)cc4Cl)c13)CN(Cc1ccc(OC)cc1)CC2	0.1%	-0.8	x	x	x	u	-13.0
O=C(NCc1ccccc1)/C(=C\c1ccc(F)cc1)NC(=O)c1ccco1	0.6%	-0.6	x	x	x	1.6%	-3.4
Cc1cc(NC(=O)CSc2nc3c(c(=O)n2CCc2ccccc2)SC(C)C3)no1 (configuration not stated)	6.2%	0.2	-9.0%	12.8	3.7	25.5%	-9.5
CCOc1ccc2[nH]c3c(NCCC(C)C)ncnc3c2c1	u	-0.8	-17.5%	-4.7	-16.3	3.2%	-16.1
COc1ccc(NC(=O)CSc2nnc(CNC(=O)c3ccco3)o2)c(OC)c1	0.1%	0.6	6.0%	-2.7	-1.9	-1.2%	-11.1
COc1ccc(C(c2nnnn2C2CCCCC2)N2CCN(c3ccccc3)CC2)cc1 (configuration not stated)	x	x	-0.7%	-4.3	0.3	x	x
COc1ccccc1/C=C1\CCC(C2CCCC2)C1=O (configuration not stated)	4.1%	3.1	7.6%	-2.5	-1.0	-6.0%	3.8
COc1cc(NC(=O)c2ccc(S(=O)(=O)N(C)c3ccccc3)cc2)cc(OC)c1	-0.4%	-0.2	x	x	x	-10.0%	2.4
Cc1ccc(N(CC(=O)NC2CCCCC2)C(=O)CCCC(=O)Nc2ccccn2)c(C)c1	-0.6%	-0.7	3.8%	-2.0	-3.6	x	-9.5
CCc1ccccc1Cn1c(=O)oc2cccnc21	1.4%	-0.4	14.2%	6.3	4.3	-0.8%	20.4
O=C(NC1CCCC1)C(c1ccncc1)N(C(=O)c1ccco1)c1ccc(Cl)cc1 (configuration not stated)	3.2%	0.1	2.3%	u	-4.2	0.1%	-1.1
COc1cccc2cc(-c3cc(=O)oc4cc(C)c(O)cc34)oc12	0.0%	0.6	-19.1%	22.3	x	-2.8%	-14.3
O=C(Nc1ccc(Cl)cc1)c1cc(S(=O)(=O)N2CCOCC2)cs1	-6.3%[38.3 µM]	-0.2	0.8%	-17.4	-0.5	-0.5%	13.6
CCOC(=O)c1c(C(F)(F)F)cc(-c2ccc(F)cc2)nc1C	u	1.5	-0.1%	2.1	0.8	0.7%	16.1
O=C(/C=C/c1cn(-c2ccccc2)nc1-c1ccccc1)Nc1ccc(C(=O)O)cc1	0.4%	-0.3	u	-4.8	0.4	x	-5.9
CN(C)c1cccc2c(S(=O)(=O)N3CCCC3)cccc12	0.8%	2.1	-6.2%	-24.9	2.1	-0.6%	20.2
Cc1ccc2cc3cc(C(=O)NCCN4CCOCC4)oc3nc2c1	3.0%	-0.3	16.6%	3.8	-0.3	-2.5%	-8.1
CCCN1C/C(=C/c2cccc([N+](=O)[O-])c2)C(=O)/C(=C/c2cccc([N+](=O)[O-])c2)C1	-2.1%	0.7	11.8%	-1.4	1.5	963.8%	-2.1
CN1C(=O)/C(=C/c2ccccc2Cl)Sc2ccc(C(=O)N3CCCC3)cc21	-0.8%	2.3	-18.5%	-1.2	-0.3	-3.1%	62.9
CCCCNC(=O)NC1C(NC(=O)NCCCC)N(C)C(=O)N1C (configuration not stated)	0.9%	0.4	5.7%	x	3.1	-2.4%	-11.8
O=C(COc1ccccc1)N1CCCC1	0.5%	0.3	8.9%	-21.1	6.2	x	29.2
O=C1CC(c2nc3ccccc3[nH]2)CN1c1ccccc1F (configuration not stated)	0.4%	0.3	11.3%	-2.1	-0.5	-0.9%	7.3
Cc1nc(-c2ccc(Cl)cc2)sc1C1(C)CC(c2cccnc2)=NO1 (configuration not stated)	1.0%	0.2	56.2µM*	u	3.8	-19.9%	-14.1
CC1CCCC(C)N1C(=O)CSc1nnc(COc2ccccc2)n1-c1ccccc1 (configuration not stated)	x	0.7	12.5%	1.8	-1.0	1.3%	-2.5
CCOc1ccc(Nc2nc(N)c([N+](=O)[O-])c(N3CCN(CC)CC3)n2)cc1	0.7%	0.0	0.9%	8.2	-7.3	1.7%	-10.3
COc1ccccc1N(/N=C1\Sc2ccccc2C1=O)C(C)=O	-1.2%	0.5	10.6%	-8.2	0.0	2.5%	5.7
C/C(=N\NC(=O)c1ccc(F)cc1)c1cccc(NC(=O)c2ccco2)c1	-0.7%	1.0	9.2%	-11.3	1.9	0.0%	-19.6
CC1Cc2ccccc2N1C(=S)NC(=O)C1(C)CC1(Cl)Cl (configuration not stated)	4.7%	1.5	19.4%	1.5	-0.9	x	8.5
Cc1ccc(S(=O)(=O)c2cc(OC(=O)c3ccco3)ccc2OC(=O)c2ccco2)cc1	0.4%	0.7	-2.4%	5.3	x	-2.2%	47.3
COc1ccccc1NS(=O)(=O)c1ccc(O)c(C(=O)OCC(=O)Nc2ccccc2F)c1	-1.6%	0.8	21.6%	9.6	-1.0	x	11.3
COc1cccc(/C=N/NC(=O)c2cccc3ccccc23)c1OC	10.4%	2.9	x	x	x	x	26.1
COc1ccccc1NC(=O)N(O)C1(C#N)CCCCC1	-1.1%	0.3	x	x	x	3.0%	64.0
CN(C)c1ccc(-c2csc(C(O)c3ccccc3)n2)cc1 (configuration not stated)	5.9%	-0.4	x	x	x	-3.5%	x
CCc1ccc(N(CC(=O)NCCc2ccccc2)C(=O)CCC(=O)Nc2ccccn2)cc1	-2.3%	3.1	2.9%	-16.3	-3.2	x	-20.4
CC(C)CCN1CCN(Cc2cnc(-c3ccccc3)s2)CC1CCO (configuration not stated)	0.5%	-0.3	14.5%	0.8	1.0	x	-9.4
CCCN(CCC)C(=O)c1cn(CC)c2ccc(S(=O)(=O)N3CCCCC3)cc2c1=O	0.3%&2.0%	-0.9&-0.8	4.0%	23.4	-5.6	-5.0%&-1.7%	-10.1&11.7
Fc1ccc(Nc2ncnc3c2nc2n3CCCC2)cc1	4.0%	1.0	x	x	x	0.7%	-9.5
CCOc1ccc(/C=C/c2cc[n+](C)c3ccccc23)cc1OCC	0.4%	0.3	x	x	x	-0.5%	x
COCCNC(=O)c1c(-c2ccccc2)c(-c2ccccc2)nn(C)c1=O	-1.1%	3.8	x	x	x	1.2%	30.5

Screening data from PubChem BioAssay.

This is a random part of the collection (roughly 4.4% active in at least one column).
